HCMV NEC inh – disrupts HCMV UL50-UL53 complex binding. HTRF UL50-UL53 interaction, normalized percent inhibition. inhibition, % (concentration not given with the values). AID 1918969. 190,000 tested, 0.15% active;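 active means both replicates at 50% or more, plus weaker picks with an unusually low signal ratio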;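 further: stock transfer was 100 nL into about 20 µL; 0% = negative control wells and 100% = wells with untagged competitor protein; inactives centre near -12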
GIV-Gai inh – GIV-Galpha-i interaction inhibition; 210,000 tested, 0.42% active; Galpha-i3/FITC-GIV peptide fluorescence polarization, 90 min; stronger effect = lower value; scaled: aluminum fluoride 0%, vehicle 100%; P08753; percent of control (FP), % (no concentration beside the values);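 active means replicate mean at 85% of control or lower, very high polarization wells dropped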;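 further: wells of about 15 µL received 100 nL stock; the first replicate is given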
Target sequence (P08753 whole entry, looked up): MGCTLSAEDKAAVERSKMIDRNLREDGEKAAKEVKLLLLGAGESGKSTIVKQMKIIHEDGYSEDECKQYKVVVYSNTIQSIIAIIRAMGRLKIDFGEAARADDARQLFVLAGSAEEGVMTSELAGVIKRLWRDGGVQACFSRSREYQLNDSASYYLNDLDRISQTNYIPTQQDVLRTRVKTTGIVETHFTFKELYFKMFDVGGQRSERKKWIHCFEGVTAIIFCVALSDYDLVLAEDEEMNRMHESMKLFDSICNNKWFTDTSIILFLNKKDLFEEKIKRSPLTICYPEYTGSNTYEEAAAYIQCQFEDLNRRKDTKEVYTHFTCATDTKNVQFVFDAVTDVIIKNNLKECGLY
Sa growth inh – blocks Staphylococcus aureus growth; 170,000 tested, 0.53% active; S. aureus RN4220 growth, OD600, 20 h, 42 °C; stronger effect = lower value; AID 720641; relative growth, % (concentration not given with the values);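 active means growth at 42 °C up to 50% and 20 or more points under that at 30 °C, or under 10% at both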;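 further: 300 nL library stock went into each well; scaled to the means of positive and negative controls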
Sa growth inh second temp – second read-out of Sa growth inh, no call of its own (marks repeat the call); relative growth, %; measured here: growth at 30 °C;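 optical density after 20 h as mean of two plates; 100% = untreated growth and lower means inhibition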
Numbers without * were called inactive; . = not tested or not shown; & = joins results of further samples.

Start of the data: the first 6 compounds (preview)
Fields – HCMV NEC inh	GIV-Gai inh	Sa growth inh	Sa growth inh second temp
> Cc1ccc(Cn2c(=O)c(N3CCC(C(=O)NCc4cccc(Cl)c4)CC3)nc3ccccc32)cc1
    0.7	104.4	.	.
> COc1ccc(-c2cc(-c3ccccc3)[nH]c(=S)c2C#N)cc1
    -41.4	.	82.0	87.0
> CCc1nonc1NC(=O)c1oc2cc(C)c(C)cc2c1C
    8.2	100.6	96.0	93.4
> CSc1ccccc1NC(=O)CSc1nc2ccc(C)cc2[nH]1
    .	109.3	115.5	70.1
> CN(CC1COc2ccccc2O1)C(=O)/C=C/c1ccc(S(=O)(=O)NCc2ccco2)cc1 (centres undefined)
    -33.8	.	78.9	83.5
> COC(=O)C1=C(C)N(c2ccc(F)cc2)/C(=C/c2ccco2)C1=O
    .	104.0	104.5	85.4

The whole of this part, repeating the preview:
Fields – HCMV NEC inh	GIV-Gai inh	Sa growth inh	Sa growth inh second temp
> Cc1ccc(Cn2c(=O)c(N3CCC(C(=O)NCc4cccc(Cl)c4)CC3)nc3ccccc32)cc1
    0.7	104.4	.	.
> COc1ccc(-c2cc(-c3ccccc3)[nH]c(=S)c2C#N)cc1
    -41.4	.	82.0	87.0
> CCc1nonc1NC(=O)c1oc2cc(C)c(C)cc2c1C
    8.2	100.6	96.0	93.4
> CSc1ccccc1NC(=O)CSc1nc2ccc(C)cc2[nH]1
    .	109.3	115.5	70.1
> CN(CC1COc2ccccc2O1)C(=O)/C=C/c1ccc(S(=O)(=O)NCc2ccco2)cc1 (centres undefined)
    -33.8	.	78.9	83.5
> COC(=O)C1=C(C)N(c2ccc(F)cc2)/C(=C/c2ccco2)C1=O
    .	104.0	104.5	85.4
> COc1ccc(NC(=O)c2nn(C)c3c2COc2ccccc2-3)cc1
    .	104.6	100.6	90.6
> CCOC(=O)C1=C(N2CCOCC2)CC(c2ccccc2)(C(F)(F)F)NC1=O (centres undefined)
    -14.9	.	96.7	97.1
> COC(=O)c1csc(C(=O)OC)c1C
    -5.0	.	75.5	70.8
> O=c1cc(CN2CCc3ccccc3C2)occ1OCc1ccc(F)cc1
    -22.3	105.1	95.2	80.7
> O=C(NCCc1ccc(Cl)cc1)c1cc2ccccn2n1
    -36.5	98.2	.	.
> CCC(C)NC(=O)c1c(-c2ccccc2)c(-c2ccccc2)nn(C)c1=O (centres undefined)
    -12.0	97.7	101.6	90.4
> c1ccc(CSc2ccc(-c3cccs3)nn2)cc1
    .	96.4	110.8	84.0
> COc1ccc(OC)c(NC(=O)/C=C/c2ccc(S(=O)(=O)N3CCOCC3)cc2)c1
    -42.5	.	91.7	92.7
> CC(=O)Oc1ccc(C2OC(=O)c3ccccc3N2C(C)=O)cc1 (centres undefined)
    .	101.7	84.0	89.1
> CC1=C(c2ccc(C)c(C)c2)S(=O)(=O)N(Cc2ccc(C(=O)NC3CCCC3)cc2)C1=O
    -16.0	96.7	.	.
> COc1cccc(N2CCn3c2nc2c3c(=O)n(CC(=O)O)c(=O)n2C)c1
    3.2	97.0	.	.
> O=C(Oc1ccc2ccccc2c1)C1c2ccccc2Oc2ccccc21
    -12.4	109.0	109.1	94.5
> CC(C)(C)CC(C)(C)NC(=O)Nc1ccc(F)cc1
    -17.2	111.5	111.2	98.6
> O=C(c1cnn(C(=S)NCCN2CCOCC2)c1)c1ccccc1O
    -28.1	.	92.1	84.2
> CC1CC(C)CN(C(=O)CCc2ccccc2)C1 (centres undefined)
    2.9	.	105.5	106.9
> O=C(OC1CCCC1)c1cccnc1Cl
    13.6	.	95.4	95.2
> CN(CC(=O)Nc1ccc(Cl)c(Cl)c1)CC(=O)N1CCNC1=O
    0.1	.	110.3	92.0
> Cc1cc(=O)oc2c1c(-c1ccccc1)nn2-c1ccc(C(=O)O)cc1
    -47.8	100.9	89.6	87.3
> CC(=O)Nc1ccc(S(=O)(=O)Nc2noc3ccccc23)cc1
    -15.5	94.1	.	.
> CCN(C(=O)CSc1nc2ncccc2[nH]1)c1ccc(C(C)C)cc1
    -28.8	98.1	100.6	82.8
> CCCCNC(=O)c1ccc2c(=O)n(Cc3ccco3)c(=S)[nH]c2c1
    2.4	102.8	103.8	96.3
> COC(=O)/C=C1\SC(=Nc2cccc(SC)c2)N(c2cccc(SC)c2)C1=O
    .	98.8	108.3	93.1
> COc1ccc(OCC(O)CNS(=O)(=O)c2ccc(NC(C)=O)cc2)cc1 (centres undefined)
    -23.2	100.6	88.1	91.9
> COc1cc2nc(CNCCCN3CCCC3=O)[nH]c(=O)c2cc1OC
    2.3	.	85.8	92.1

One compound at a time, as listed above. Order of screens: HCMV NEC inh	GIV-Gai inh	Sa growth inh	Sa growth inh second temp
CCCCNC(=O)c1ccc2c(=O)n(Cc3ccco3)c(=S)[nH]c2c1 as listed: 2.4	102.8	103.8	96.3
CCN(C(=O)CSc1nc2ncccc2[nH]1)c1ccc(C(C)C)cc1 as listed: -28.8	98.1	100.6	82.8

(continued)
Fields – HCMV NEC inh	GIV-Gai inh	Sa growth inh	Sa growth inh second temp
> CCOc1cc(C=C2C(=O)N(C)C(=O)N(C)C2=O)ccc1OCCOc1ccccc1OC
    -17.9	106.2	.	.
> CCCCN(C)C(=O)Cn1cnc2sc(C)c(S(=O)(=O)N3CCN(c4ccccc4OC)CC3)c2c1=O
    -15.6	102.2	99.7	91.1
> O=C(Oc1ccc2cc(-c3nc4ccccc4s3)c(=O)oc2c1)c1ccco1
    .	-41.9*	103.0	85.1
> CS(=O)(=O)N1CCCC1c1ccc(Cl)cc1 (centres undefined)
    -33.9	103.5	.	.
> Cn1[nH]c(C(F)(F)F)cc1=O
    -9.4	101.9	.	.
> O=S(=O)(Nc1[nH]ncc1Br)c1ccc(Cl)s1
    9.8	100.6	121.1	108.1
> CCN(Cc1ccc(F)cc1)c1cc(=O)n2nc(-c3ccccc3)sc2n1
    20.9	106.0	.	.
> CCN(CC)CCNC(=O)c1sc2ncnc(N3CCCCC3C)c2c1C (centres undefined)
    -42.3	97.3	.	.
> COc1cc(OC)c(C(=O)N2CCCC2)cc1OC
    -2.4	.	92.2	94.3
> CCOC(=O)CC(N)=S
    -20.8	.	110.6	88.1
> COc1ccc(OCCSc2nc3ccccc3o2)cc1
    4.3	.	117.2	86.3
> CCCN(Cc1nnc(-c2ccccc2Cl)o1)C(=O)c1nc(-c2ccccc2)n(-c2ccccc2)n1
    -15.4	.	67.7	85.6
> CN1C(=O)c2ccccc2C(C(=O)NCc2ccco2)C1c1cn(C)c2ccccc12 (centres undefined)
    .	110.1	84.7	96.3
> CCCCOc1cccc(C(=O)N(Cc2cccs2)c2ccc(OC)cc2)c1
    -24.1	105.8	93.9	81.3
> COc1cccc(C(=O)N2CCN(Cc3ccccc3C(F)(F)F)CC2)c1OC
    -7.3	.	98.7	88.7

A few values from the list.
`CCOC(=O)CC(N)=S` in Sa growth inh shows 110.6
`CCCN(Cc1nnc(-c2ccccc2Cl)o1)C(=O)c1nc(-c2ccccc2)n(-c2ccccc2)n1` in Sa growth inh second temp shows 85.6
`CS(=O)(=O)N1CCCC1c1ccc(Cl)cc1` (centres undefined) in GIV-Gai inh shows 103.5
`COc1cc(OC)c(C(=O)N2CCCC2)cc1OC` in Sa growth inh second temp shows 94.3
`CCCCN(C)C(=O)Cn1cnc2sc(C)c(S(=O)(=O)N3CCN(c4ccccc4OC)CC3)c2c1=O` in Sa growth inh shows 99.7
`CN1C(=O)c2ccccc2C(C(=O)NCc2ccco2)C1c1cn(C)c2ccccc12` (centres undefined) in Sa growth inh shows 84.7

Remaining list, next part:
Fields – HCMV NEC inh	GIV-Gai inh	Sa growth inh	Sa growth inh second temp
> COc1ccc(CNC(=O)CCS(=O)(=O)c2cc3c4c(c2)CCN4C(=O)CC3)cc1
    .	104.4	82.7	92.8
> O=S(=O)(/N=C(\N=C1CCN(c2ccccc2)N1)c1ccccc1)c1ccccc1
    -25.4	.	107.2	103.9
> COc1cc(C2NC(=O)NC(C)=C2C(=O)OCc2ccc(C)cc2)cc(OC)c1OC (centres undefined)
    -12.0	97.7	.	.
> O=C(OCc1ccc2c(c1)OCO2)c1cc2ccccc2oc1=O
    -5.4	101.4	106.0	106.1
> CC(C)S(=O)(=O)c1cnc(-c2ccc(Cl)cc2)nc1N
    -4.3	109.0	98.1	88.1
> CCS(=O)(=O)c1ccc(-c2ccc(NC(=O)c3ccc(Br)cc3)cc2)nn1
    7.4	102.0	.	.
> CCc1ccc(NC(=O)c2ccccc2N)cc1
    -32.5	.	99.0	76.4
> O=S(=O)(c1cc(C(F)(F)F)cc(C(F)(F)F)c1)n1cc2c(n1)CCOC2
    10.7	108.5	94.0	107.5
> CCOc1cc(C2C(C#N)=C(N)Oc3n[nH]c(-c4cc(OC)c(OC)c(OC)c4)c32)ccc1OC(=O)N1CCOCC1 (centres undefined)
    -21.1	99.8	.	.
> COc1ccc(C(=O)N(CCc2ccccc2)Cc2ccccc2)c(OC)n1
    .	103.6&105.6	120.2	90.7
> Cc1cccc(-c2ocnc2C(=O)N2CCN(C(=O)c3cccs3)CC2)c1
    4.5	101.8	125.3	88.3
> COc1ccc(-n2ncc(C(=O)N3CCN(C)CC3)c2C)cc1
    -4.4	101.2	93.4	93.0
> O=C(CCC1CCCC1)N1CCC2(CC1)Nc1ccc(Cl)cc1-n1cccc12
    -26.9	108.4	.	.
> O=C1CNc2c(c(=O)oc3ccccc23)N1
    -108.7	101.7	84.3	64.8
> Cc1ccc(C)c(/C(O)=C2\C(=O)C(=O)N(CCN(C)C)C2c2cccc(Br)c2)c1 (centres undefined)
    -9.8	105.7	103.7	98.0
> O=C(Nc1ccccc1C(F)(F)F)C1Sc2nnc(-c3ccccc3)n2NC1c1ccc(F)cc1 (centres undefined)
    .	104.9	107.9	85.3
> COC(=O)c1[nH]c2sc3c(c2c1N)CCCC3
    -1.5	20.1*	69.2	37.3
> CC(=O)NS(=O)(=O)c1ccc(N2C(=O)CC(Sc3nccc(C)n3)C2=O)cc1 (centres undefined)
    .	103.2	102.3	76.4
> CCCCN(CC)S(=O)(=O)c1ccc(C(=O)Nc2nnc(-c3ccc(Cl)s3)o2)cc1
    .	104.3	0.2*	0.3*
> COc1ccc(/C=N/c2oc(-c3cccs3)c(-c3cccs3)c2C#N)cc1
    1.2	.	101.5	92.0
> Cc1cc(NCCC(C)C)n2nc(C(F)(F)F)c(-c3ccc(F)cc3)c2n1
    7.3	101.0	.	.
> S=c1[nH]nc(-c2cccnc2)n1/N=C/C=C/c1ccco1
    -67.0	.	80.7	83.7
> COC(=O)Nc1cc(OC)cc(C(F)(F)F)c1
    -1.0	107.6	68.9	56.7
> Cc1nc(-c2cccnc2)sc1CCNS(=O)(=O)c1ccc(F)cc1
    .	108.6	122.8	90.4
> COc1ccc(-c2cc(C(=O)N3CCCC3)no2)cc1S(=O)(=O)N1CCOCC1
    -11.7	115.4	98.1	98.1
> CC1CCN(c2nc(-c3ccc(C(C)(C)C)cc3)nc3ccccc23)CC1
    -39.4	102.2	107.8	81.0
> NC(=O)C1CC(O)CN1c1nc(-c2cccnc2)nc2ccccc12 (centres undefined)
    -19.4	.	85.6	93.6
> O=C(OCc1cccs1)C1CC1
    -16.0	.	109.9	91.4
> O=C1CS/C(=N/N=C/c2ccccc2)N1c1ccc(O)cc1
    -10.2	96.4	105.5	89.4
> Cc1nnc2sc(-c3ccco3)nn2c1=O
    -90.7	103.6	.	.
> COc1ccc(-c2noc(-c3cn(Cc4ccc(NC(=O)Nc5ccccc5)cc4)cn3)n2)cc1
    -13.4	99.4	.	.
> O=C(CC(c1ccccc1)c1ccccc1)N1CCOCC1
    3.8	.	97.2	125.2
> CCOc1ccc(CNC(=O)c2cc3cc(S(=O)(=O)N4CCCCC4)ccc3n2C)cc1
    .	101.4	96.5	91.9
> COc1ccc(C(=O)N2CCC(C(=O)O)CC2)cc1
    -15.8	104.7	115.8	86.3
> CCN(CC)C(=O)COc1ccc(-c2nnc(N3CCCCC3)c3ccccc23)cc1
    2.0	104.0	98.9	88.2
> Cc1ccccc1Nc1c(-c2ccc(O)cc2)nc2sccn12
    .	107.6	104.4	67.1
> Cn1c(-c2ccccc2)cnc1NC(=O)NCCc1ccccc1
    -28.6	101.3	.	.
> CCCSc1nc2c(c(=O)n1CC)SC(C)C2 (centres undefined)
    .	99.9	93.3	74.1
> COc1ccccc1N1C(=O)C(Cc2ccccc2)N=C1N(C)CCCc1ccco1 (centres undefined)
    -17.0	100.0	93.3	84.4
> CCOC(=O)c1nc(Nc2ccc(C)c(Cl)c2)c2ccccc2n1
    -15.7	103.9	.	.
> COc1cc(-c2nc3ccccc3c(=O)n2NC(=O)c2cc(C)c(C)cc2C)cc(OC)c1OC
    0.4	106.1	.	.

Source: PubChem BioAssay

Random draw from the library; overall some 0.82% were active at least once.
